MT1-MMP act inh: blockers of MT1-MMP proenzyme processing, primary screen, HT1080 RFP-PRO-GFP cells, GFP/RFP fluorescence. GFP/RFP ratio fluorescence, overnight; percent of plate control window, DMSO zero. GFP/RFP ratio change, % at 20 µM. 360,000 tested, 0.061% active. AID 651647, 2012;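 active = GFP/RFP ratio change of at least 30% with cell ATP level not reduced by more than half and red fluorescence within 50% of control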; note: strong numbers were not always called active
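Read-out: GFP/RFP fluorescence ratio; Test system: RFP-PRO-GFP reporter HT1080 cells; Compound dosing: single-point 20 µM compound, 1% DMSO; Times: overnight compound exposure at 37 °C.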
eIF4H FP inh: human eIF4H binding inhibitors, primary screen, translation initiation inhibitor project, biochemical, uHTS, fluorescence polarization | Eukaryotic translation initiation factor 4H (Homo sapiens), Q15056 | eIF4H fluorescence polarization binding assay | inhibition, % at 35 µM | 290,000 tested, 0.94% active | AID 2012, 2009;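 active = 50% or more with normal probe brightness, or confirmed in later tests; inconclusive = above 50% with abnormal brightness, or retests that disagree; inactive = below 50% or failed in later tests; about a fifth of its hits are not listed in these tables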;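 note: calls also rest on retests at 20 µM and on dose response follow-up; 0% = protein and probe with vehicle and 100% = probe without protein; strong numbers were not always called active; many hits fall short of the cut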
CSC inhib: cancer stem cell viability inhibitors, primary screen, luminescence. inhibition, % at 7.5 µM. 300,000 tested, 1.1% active. cancer stem cell-like cells viability;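 active = mean at 75% or more and at least half the replicates too; inconclusive = mean and replicates disagree; tested in HMLE shEcad cells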;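 note: 0% = median of negative and 100% = median of positive control wells; the first replicate is given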
HIV Env fusion: inhibitors of HIV-1 Env-driven cell-cell fusion, primary screen, HeLa-JRFL effector, CEM21 target cells, luciferase. 360,000 tested, 1.1% active. inhibition, % at 12.3 µM;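 active = mean replicate inhibition score of at least 50 and every replicate individually at or above 50; inconclusive = only one of the two criteria met; inactive = mean below 50 and not all replicates reaching 50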;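 note: 0% = plate neutral controls and 100% = maraviroc near 300 nM; one replicate is shown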
Rce1 inh: yeast Rce1p protease inhibitors, primary screen, biochemical, fluorescence, cell-free homogeneous; CAAX prenyl protease 2 (Saccharomyces cerevisiae (strain ATCC 204508 / S288c)), Q03530; yeast membranes, quenched prenylated peptide cleavage fluorescence; calls only; 290,000 tested, 0.27% active; AID 2563, 2010;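 active = fall in fluorescence gain of 50% or more versus controls, with final raw signal at or below 3038400; inconclusive = same 50% fall but final raw signal above 3038400; inactive = fall in fluorescence gain under 50%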;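 note: plate controls were neutral control wells for no effect and wells lacking membranes for full effect; tested at 10 µM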
Target sequence (Q03530 whole entry, looked up): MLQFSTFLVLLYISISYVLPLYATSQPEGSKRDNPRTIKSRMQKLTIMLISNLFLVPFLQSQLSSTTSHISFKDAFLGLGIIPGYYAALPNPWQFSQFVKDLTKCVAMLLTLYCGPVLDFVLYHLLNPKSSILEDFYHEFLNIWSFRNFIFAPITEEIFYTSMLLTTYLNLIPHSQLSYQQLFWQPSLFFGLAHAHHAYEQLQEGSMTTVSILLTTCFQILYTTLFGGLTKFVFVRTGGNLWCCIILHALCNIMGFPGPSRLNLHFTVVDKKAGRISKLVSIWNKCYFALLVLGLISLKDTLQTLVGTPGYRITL
PABP polyA inh: PABP poly(A) RNA binding inhibitors, primary screen, biochemical, fluorescence polarization, uHTS | Polyadenylate-binding protein 1 (Homo sapiens), P11940 | 290,000 tested, 1% active | inhibition, % at 35 µM | AID 2014, 2009;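 active = 50% or more with normal probe brightness, or confirmed in later tests; inconclusive = above 50% with abnormal brightness, or retests that disagree; inactive = below 50% or failed in later tests; about a fifth of its hits are not listed in these tables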;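 note: calls also rest on retests at 20 µM and on dose response follow-up; controls were probe without protein and protein plus probe with vehicle; some compounds called inactive have numbers as strong as hits; many hits fall short of the cut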
Target sequence (P11940 whole entry, looked up): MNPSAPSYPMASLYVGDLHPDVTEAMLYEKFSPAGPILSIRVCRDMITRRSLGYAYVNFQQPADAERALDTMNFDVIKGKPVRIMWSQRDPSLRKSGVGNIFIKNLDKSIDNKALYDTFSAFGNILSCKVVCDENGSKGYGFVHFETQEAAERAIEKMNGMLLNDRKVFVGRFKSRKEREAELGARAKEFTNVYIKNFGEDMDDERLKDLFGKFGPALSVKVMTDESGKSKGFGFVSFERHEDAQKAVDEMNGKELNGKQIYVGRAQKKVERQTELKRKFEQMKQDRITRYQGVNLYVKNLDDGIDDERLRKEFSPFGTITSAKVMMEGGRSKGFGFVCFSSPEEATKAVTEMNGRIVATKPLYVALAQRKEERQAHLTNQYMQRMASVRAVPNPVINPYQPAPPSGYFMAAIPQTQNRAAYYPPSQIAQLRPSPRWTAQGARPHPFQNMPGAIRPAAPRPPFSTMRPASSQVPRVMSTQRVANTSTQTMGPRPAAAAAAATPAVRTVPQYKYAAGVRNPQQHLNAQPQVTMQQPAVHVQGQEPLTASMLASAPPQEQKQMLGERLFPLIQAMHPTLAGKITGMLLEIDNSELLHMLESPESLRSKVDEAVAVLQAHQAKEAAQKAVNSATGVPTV
UUG fidelity: modulators of yeast start codon fidelity, primary screen, whole organism, S. cerevisiae, single point, plate reader; 350,000 tested, 0.13% active; AID 602363, 2012; S. cerevisiae UUG-firefly luciferase reporter, luminescence/redox ratio; activity score, % at 18.7 µM;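 active = replicate mean at a twofold rise or more, about +100% in these data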;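 note: firefly luciferase made from a UUG start codon reports start codon fidelity; reporter light over untreated wells divided by growth signal over untreated wells; some hits fall short of that in this replicate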
MT1-MMP act inh RFP: further read-out of MT1-MMP act inh, marked with its call; RFP signal change, %; measured here: RFP expression control read;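 0 = vehicle wells; hits needed this value within 50% of zero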
* marks the source's active call; other numbers are inactive results; i = inactive; ? = inconclusive; . = not tested or not shown; & = joins results of further samples; [ ] = remark or other dose.

SMILES	MT1-MMP act inh	MT1-MMP act inh RFP	eIF4H FP inh	CSC inhib	HIV Env fusion	Rce1 inh	PABP polyA inh	UUG fidelity
Cc1ccc([C@@H]2[C@@H]3C(=O)N(c4ccccc4)C(=O)[C@@H]3[C@]3(C)C(=O)N(CC4CC4)CC(=O)N23)o1	-1.6	2.7	18.6	12.0	13.9	i	8.1	-11.1
CCN(CC)CCCn1c2c(c(SCC(=O)Nc3ccc(C)c(F)c3)nc1=O)CCC2	-3.7	1.1	.	-8.4	5.8	i	.	.
CCOC(=O)/C(=N/O)C1=NC(C)(C)Cc2cc(C)c(C)cc21	-1.0	0.9	0.0	-8.6	-18.8	i	-7.9	-24.0
O=C(CNC(=O)c1ccccc1)N/N=C/c1cccs1	2.3	3.7	-5.0	-12.9	-2.0	i	-8.4	.
O=C(O)CCCC(=O)NCCCc1ccccc1	1.7	2.2	7.5	-5.4	.	.	0.5	-15.0
COC(=O)c1cc(S(=O)(=O)Nc2cc(OC)cc(OC)c2)cn1C	2.4	-1.6	2.4	-2.6	2.4	i	-12.4	-11.3
CCOc1cccc(OCCCOc2cccc3cccnc23)c1	0.3	0.9	-1.6	37.8	7.0	i	-6.6	-10.8
CCCCCCC1CC(C)(/C(C)=N/NC(N)=O)OC1=O (stereo unspecified)	1.1	2.4	2.5	-6.8	.	i	-3.6	1.5
COc1ccc(S(=O)(=O)Nc2ccccc2OC)cc1C	2.9	1.8	13.3	.	2.8	i	-2.0	-18.5
S=c1cnc2ccccc2[nH]1	1.3	5.4	-10.0	-17.1	-17.3	i	-4.4	.
CCCNC(=O)CN(c1ccccc1)S(=O)(=O)c1ccc(OC)c(OC)c1	6.5	2.4	5.5	1.8	.	.	3.1	3.2
COc1cc(NS(=O)(=O)c2cc(C)ccc2OC)c(OC)cc1Cl	-3.4	-5.9	-3.5	-1.1	.	i	1.8	-17.6
CCOc1ccc(N2CC(NS(=O)(=O)c3cccs3)CC2=O)cc1 (stereo unspecified)	-6.0	-2.8	.	.	55.8*	i	.	19.7
Cc1ccccc1NC(=S)Nc1ccccn1	4.2	1.6	6.7	-9.7	-25.8	i	6.5	-19.5
COc1ccc(-c2c(C)nn3c(-c4ccccc4)cc(C)nc23)cc1	1.8	-6.7	-12.6	.	17.1	i	-1.1	-6.4
Nc1cc(Nc2ccccc2)ccn1	0.0	-2.0	.	-7.3	-3.5	.	.	6.4
CCN(CC)S(=O)(=O)c1ccc(Cl)c(C(=O)NC(C)C(c2cccs2)N2CCCC2)c1 (stereo unspecified)	-10.3	-3.4	-1.8	8.4	8.6	i	12.7	.
CCCCNC(=O)c1onc(CSc2cccc(OC)c2)c1C(=O)O	7.2	-3.3	2.4	7.2	1.8	i	-1.9	12.2
CCOc1ccc(N2CC(C(=O)Nc3cccc(S(=O)(=O)NC4=NCCC4)c3)CC2=O)cc1 (stereo unspecified)	4.5	-4.8	-4.8	5.5	0.1	i	2.8	.
CC(C)CC(=O)Nc1ccc2c(c1)oc1ccccc12	5.3	3.5	-8.2	35.9	-148.8	i	-4.5	-11.3
COc1cc(C(=O)NCc2ccc(F)cc2)cc(Cl)c1OC	1.6	-0.6	1.3	-7.2	11.7	i	-3.4	.
Cc1cccc(CS(=O)(=O)Cc2ccc(C(=O)NC(C)c3ccccc3)o2)c1 (stereo unspecified)	1.5	0.8	.	-8.1	-1.7	i	.	-9.4
O=C(Nc1ccc2c(c1)OCO2)C1CCN(c2ccc(S(=O)(=O)N3CCOCC3)cc2)CC1	5.4	-2.6	-10.2	3.1	-67.4	i	-11.5	5.1
COc1ccc(-c2nc3cnccn3c2Nc2ccc3c(c2)OCO3)cc1	-6.6	-5.3	-0.9	-9.9	-0.8	i	-3.0	-3.2
O=C(CCCCCn1c(=S)[nH]c2ccc(N3CCOCC3)cc2c1=O)NCc1ccc2c(c1)OCO2	1.1	-0.5	10.2	50.5	-7.1	i	9.0	-10.5

Next section
SMILES	MT1-MMP act inh	MT1-MMP act inh RFP	eIF4H FP inh	CSC inhib	HIV Env fusion	Rce1 inh	PABP polyA inh	UUG fidelity
O=C(O)c1cccc(Sc2ccc(Br)cc2C(=O)O)c1	0.7	1.1	.	-2.9	37.2	.	.	-0.4
Cc1ccccc1C(=O)NNC(=S)NC(=O)c1cccnc1	4.0	8.2	-1.5	-12.8	-7.0	i	8.0	-31.2
Cc1ccc(Cl)cc1NC(=O)Cn1nc(-c2cccs2)ccc1=O	6.0	5.1	5.2	14.3	-8.3	i	-7.6	-13.6
COc1cc2c(cc1OC)C(=Cc1ccc(N(C)C)cc1)C=C2	10.0	-3.5	.	.	-36.7	.	.	-4.8
COc1cc(/C=C2\C(=N)N3N=C(S(C)(=O)=O)SC3=NC2=O)ccc1OS(=O)(=O)c1ccc(C)cc1	1.0	0.5	26.4	26.3	-5.5	i	17.5	-11.9
O=C(O)C1C2C=CC3(O2)C1C(=O)N1c2ccccc2COC13 (stereo unspecified)	-1.7	-2.0	7.2	-15.3	.	i	-7.4	-25.6
COc1ccc(C2(C)NC(=O)N(CC(=O)NCCC3=CCCCC3)C2=O)cc1OC (stereo unspecified)	2.8	-1.2	-13.4	-3.5	.	i	-9.3	-11.2
CCOc1cc(C(F)(F)F)cnc1/C(N)=N/O	-2.3	-3.4	-3.1	-7.1	8.7	i	-5.2	.
C[C@@H]1NC(=O)c2cc([N+](=O)[O-])cc(I)c2OCC[C@@H](C(=O)NC(CC(=O)O)C(N)=O)NC(=O)[C@H](CC(N)=O)NC1=O (stereo partly specified)	.	.	13.2	-7.2	.	.	-10.7	.
C[C@H](CO)N1C[C@H](C)[C@@H](CN(C)C(=O)Nc2ccc(C(F)(F)F)cc2)Oc2c(cccc2N(C)C)C1=O	0.9	-1.9	.	17.4	2.7[16.7 µM]	.	.	5.6&3.4
COc1ccc(S(=O)(=O)Nc2ccc(F)c(F)c2)cc1Cl	0.0	0.9	-0.5	64.1	.	i	17.8	0.2
C/C=C/C(=O)OCC(=O)Nc1cc([N+](=O)[O-])ccc1Cl	-2.8	-1.3	-12.4	-13.0	1.8	i	4.4	-12.0
CCN(CC(=O)NCc1ccc(F)cc1)C(=O)/C=C/c1ccc(OC)cc1	1.1	1.6	-4.7	-2.0	-22.4	.	0.1	1.9
Cc1ccc(S(=O)(=O)N2CCN(C(=O)N3CCOCC3)CC2)cc1C	-0.5	-0.6	-2.9	-19.8	-23.9	i	-7.7	-8.7
O=C(O)CCCCCNS(=O)(=O)c1cccc2c1C(=O)c1ccccc1C2=O	8.2	3.3	1.1	-5.8	.	i	8.9	.
CS(=O)(=O)c1ccc2nc(NC(=O)c3cccc([N+](=O)[O-])c3)sc2c1	-2.6	-5.5	-11.8	4.2	-48.1	i	-8.9	-16.0
CC[C@H](C)[C@H](NC(N)=O)C(=O)Nc1ccc2c(c1)OCO2	-11.2	-0.6	1.2	1.8	-9.2	i	2.4	.
CCN1CCN(C(c2ccc(C(F)(F)F)cc2)c2ccc3cccnc3c2O)CC1 (stereo unspecified)	6.5	-5.5	4.2	104.5*	35.2	i	-15.1	-28.2
NC(=O)Cn1cc(C(=O)C(=O)N2CCOCC2)c2ccccc21	-2.2	3.3	-10.0	-3.6	-3.8	i	-0.5	-7.3
Cc1cc(/C=C2\C(=O)NN(c3ccccc3)C2=O)c(C)n1-c1ccccc1O	-1.1	-4.2	5.8	-8.0	-16.9	i	14.0	-13.3
CC(=O)NC(c1cc(Cl)c2ccccc2c1O)C(C)C (stereo unspecified)	-12.4	-0.4	.	24.4	6.5	.	.	-15.2
CC(=O)c1c(C)[nH]c(C(=O)OCC(=O)Nc2ccc(Cl)cc2[N+](=O)[O-])c1C	-8.7	-28.8	0.2	-3.4	.	i	11.6	-0.9
COc1cccc(C(=O)/C=C/Nc2ccc(S(=O)(=O)Nc3ccc(C(C)=O)cc3)cc2)c1	1.8	-2.5	-13.2	14.3	-22.4	i	-3.8	.
Cc1ccc(CCNC(=O)C2CCN(C(=O)c3sccc3-n3cccc3)CC2)cc1	2.5	-3.2	-5.7	7.6	.	i	-5.4	.
CSc1ccccc1C(=O)NC1CC2CCC1C2 (stereo unspecified)	1.1	3.7	-19.5	-5.0	.	i	-10.3	-7.1

Taken from above.
eIF4H FP inh, Cc1ccc(S(=O)(=O)N2CCN(C(=O)N3CCOCC3)CC2)cc1C = -2.9
MT1-MMP act inh, Nc1cc(Nc2ccccc2)ccn1 = 0.0

The list goes on:
SMILES	MT1-MMP act inh	MT1-MMP act inh RFP	eIF4H FP inh	CSC inhib	HIV Env fusion	Rce1 inh	PABP polyA inh	UUG fidelity
CN(C)c1ncnc2c1ncn2C1OC(CO)C(O)C1O (stereo unspecified)	15.6	3.0	6.1	.	.	i	-7.1	-16.5
COc1ccc2[nH]c(=O)c(CNc3ccccc3C)cc2c1	-4.7	0.6	49.6	-6.2	-18.1	i	25.9	.
O=C(Nc1nnc(-c2ccccc2)o1)NC1CCCCC1	13.2	9.3	-2.1	3.2	-76.5	i	-7.2	-17.3
CCCCCn1ccc(=O)c2c(C(F)(F)F)nccc21	-9.4	-15.0	-5.9	-15.8	50.8*	i	-1.9	-6.0
CC1CC(=O)c2cnc(NCC3CCCO3)nc2C1 (stereo unspecified)	-4.9	-0.4	0.0	-2.8	.	i	1.2	-2.1
O=C(NCC(c1cccs1)N1CCOCC1)c1cn(-c2ccccc2)nc1-c1ccc(F)cc1 (stereo unspecified)	-4.6	-11.2	.	-14.1	12.5	i	.	.
COc1cccc(N2C(=O)C(CC(=O)Nc3ccc(F)cc3)N(C3CCCCC3)C2=O)c1 (stereo unspecified)	1.0	-0.7	-3.8	.	.	i	11.4	4.0
CCc1noc(C)c1C(=O)OCC(=O)Nc1ccccc1SC	2.4	-2.9	.	.	-1.5	.	.	-15.8
Cc1ccc(C(NC(=O)N2CC(C)OC(C)C2)C(Cl)Cl)cc1F (stereo unspecified)	-8.7	1.0	-4.3	-3.7	7.5	i	-8.6	-0.6
O=C(Nc1nnc(-c2ccc(F)cc2)o1)c1ccco1	2.7	5.7	-4.4	15.2	-9.7	i	2.5	-6.4
CCOc1nc(SCCOc2ccccc2)nc(N(C)C)n1	-3.4	-2.5	-0.7	8.4	-2.6	i	-0.1	-7.6
COCCN1CCN(c2c(C)c(C)nc3cc(-c4cccc(OC)c4)nn23)CC1	10.0	-0.8	.	-5.9	3.6	i	.	-17.6
O=C(Nc1ccc(N2CCOCC2)cc1)C1CC(O)CN1S(=O)(=O)c1ccc(Cl)cc1 (stereo unspecified)	-4.6	-3.6	-9.8	3.1	15.9	i	3.7	.
CCOC(=O)C1=C(C)N=c2s/c(=C\c3cccn3C)c(=O)n2C1c1cccc(OC)c1OC (stereo unspecified)	-97.8	-14.9	?	6.7	.	i	?	9.6
CCCOc1ccc(C(=O)OCC(=O)NCCc2ccc(OCC)c(OCC)c2)cc1OC	1.4	3.4	-8.8	-11.6	-9.7	i	-10.5	-5.8
CCOC(=O)COc1ccc(Cl)cc1C1NC(=O)NC(C)=C1C(C)=O (stereo unspecified)	2.3	2.7	3.4	-3.5	.	i	-3.7	-24.5

Source: PubChem BioAssay

Some of the compounds tested; rates above refer to the full screens.
